Source: PubChem (SRMLSC)
H5N1 CPE = antiviral screen in MDCK cells, H5N1 avian flu. 0.07% of 96,000 active. inhibition, % at 50 µM. cytopathic effect, luminescence, 72 h; stronger effect = higher value; no value below 0 was filed and about half of the inactive calls have no number; reference of the scale not given here; in the data active = inhibition above about 25%
An asterisk follows results filed as active.

`Cn1c(C(=O)NCc2ccco2)cc2c(=O)[nH]c3ccccc3c21` gave H5N1 CPE 4.5.
`Cc1ccc(S(=O)(=O)CCCS(=O)(=O)c2ccc(C)cc2)cc1` gave H5N1 CPE 1.9.
Cc1ccc(-n2ncc3c(=O)n(CC(=O)NCc4ccco4)cnc32)cc1 was read as H5N1 CPE inactive.
Screening COc1cccc(C(=O)Nc2cccnc2)c1 returned H5N1 CPE inactive.
CCOC(=O)c1c(-n2cnnn2)sc(C)c1C was read as H5N1 CPE inactive.
CCOC(=O)N1CCN(C2OC(=O)c3ccccc32)CC1 (stereo unspecified) was read as H5N1 CPE inactive.
O=C(CNS(=O)(=O)c1ccc(Br)cc1)N1CCOCC1 was read as H5N1 CPE 0.6.
Screening CCCCN(Cc1ccccc1)c1ncnc2nc[nH]c12 returned H5N1 CPE 1.6.
Screening COc1ccc(-c2noc(CCC(N)=O)n2)cc1OC returned H5N1 CPE 0.5.
Screening COc1ccccc1-c1cc(C(=O)Nc2ccc(F)cc2F)no1 returned H5N1 CPE inactive.
CCc1ccccc1NC(=O)Cn1nnc(-c2cccnc2)n1 was read as H5N1 CPE inactive.
For COCC(=O)NCCNc1nc2ccc(C)cc2cc1C the results were H5N1 CPE inactive.
COc1ccccc1N1CCN(C(=O)CSc2nnc(NC(=O)c3ccco3)s2)CC1 was read as H5N1 CPE 0.5.
For CC1=CC(C#N)(C#N)C(C#N)(C#N)C(c2ccccc2)N1 (stereo unspecified) the results were H5N1 CPE 0.9.
Cc1ccc(C(C)C)c(OCCCN2C(=O)NC(C)(C)C2=O)c1 was read as H5N1 CPE inactive.
For CC(=O)Nc1ccc(N=Cc2ccc[nH]2)cc1 the results were H5N1 CPE 1.0.
`CC(C)c1nnc(NC(=O)c2cccc(-n3cnnn3)c2)s1` gave H5N1 CPE 1.6.
O=C(CN1CCCC1)NCC1(c2ccccc2)CCOCC1 was read as H5N1 CPE inactive.
Screening COc1ccc(OC)c(C2=NOC(C(=O)N3CCC4(CC3)OCCO4)C2)c1 (stereo unspecified) returned H5N1 CPE 2.4.
For O=P(/C(=N/O)Sc1ccccc1)(N1CCOCC1)N1CCOCC1 the results were H5N1 CPE 0.7.
`O=C(CSc1nnc(Cc2cccs2)n1-c1ccc(Cl)cc1)NCc1ccc2c(c1)OCO2` gave H5N1 CPE 0.3.
For Cc1c(Cc2ccccc2)c(=O)oc2cc(OC(=O)c3ccccc3)ccc12 the results were H5N1 CPE inactive.
Screening CCN(CC)C(=O)CSc1nnc([C@H](CCSC)NC(=O)OC(C)(C)C)o1 returned H5N1 CPE 0.3.
Screening COc1ccc(Cc2nc(C(=O)Nc3ccccc3)cs2)cc1 returned H5N1 CPE 0.4.
`O=C(O)CCCn1c(=O)[nH]c2ccccc2c1=O` gave H5N1 CPE 0.4.
For CCCN(CCC)C(=S)NC(=O)c1ccc(Cl)cc1Cl the results were H5N1 CPE 0.4.
Screening Cn1cc([N+](=O)[O-])c(C(=O)Nc2cc(Oc3cccnc3)cc([N+](=O)[O-])c2)n1 returned H5N1 CPE inactive.
`CCC(=O)c1ccc(N2CCCCCC2)c(F)c1` gave H5N1 CPE 1.5.
For Cc1nn(C)c(C)c1S(=O)(=O)N(CC(=O)Nc1ccccn1)c1ccc(C(C)C)cc1 the results were H5N1 CPE 1.8.
For O=C(NCc1cccnc1)c1cnn2ccccc12 the results were H5N1 CPE 3.9.
COc1ccc(/C=C(/NC(=O)c2ccccc2)C(=O)N/N=C/c2cccs2)cc1OC was read as H5N1 CPE inactive.
For Cc1noc(-c2ccccc2OC(=O)c2ccccc2)n1 the results were H5N1 CPE inactive.
Screening Fc1ccc(Sc2nc(-c3ccccc3)nnc2C(F)(F)F)cc1 returned H5N1 CPE inactive.
For O=C(NC12CC3CC(CC(C3)C1)C2)c1cnccn1 the results were H5N1 CPE 1.1.
Screening Cc1ccc(OCCCCn2cnc3ccccc32)c(C)c1 returned H5N1 CPE inactive.
`O=C(Nc1c2c(nn1-c1ccc(F)cc1)CSC2)c1ccc(S(=O)(=O)N2CCOCC2)cc1` gave H5N1 CPE inactive.
CCc1nc2n[nH]c(N)c2c2c1CCCC2 was read as H5N1 CPE 0.8.
For O=CN1CCN(C(=O)c2ccccc2F)CC1 the results were H5N1 CPE 0.1.
For Cc1ccc(C2=NNC(C(O)C(O)C(O)CO)S2)cc1 (stereo unspecified) the results were H5N1 CPE 0.6.
O=C(NNC(=O)c1ccccc1)C(=O)N1CCCCC1 was read as H5N1 CPE inactive.
`O=C(CN1CCN(c2ccccn2)CC1)N(c1ccccc1)c1ccc2ccccc2c1` gave H5N1 CPE inactive.
`CC1(C)Cc2c(C#N)c(N3CCOCC3)nc(-c3ccccc3)c2CO1` gave H5N1 CPE 1.2.
Screening O=c1oc(-c2ccc(F)cc2)nc2ccsc12 returned H5N1 CPE 1.7.
`O=S(=O)(c1cccs1)N1CCN(Cc2ccccc2)CC1` gave H5N1 CPE 0.6.
Screening COc1cc(/C=N/NC(=O)Cn2c([N+](=O)[O-])cnc2C)ccc1OC(=O)N(C)C returned H5N1 CPE 0.5.
Cc1ccc(OS(=O)(=O)c2ccccc2)c(/C=N/N=C2\NC(=O)C(C)S2)c1 (stereo unspecified) was read as H5N1 CPE inactive.
Screening CSCCC(NS(=O)(=O)c1ccc(Cl)cc1)C(=O)OCC(=O)NC1CC1 (stereo unspecified) returned H5N1 CPE inactive.
`CCOC(=O)c1ccc(Nc2ncnc3c2cnn3C)cc1` gave H5N1 CPE inactive.
For COc1ccc(CCCc2nnc(SCC(=O)Nc3nc(C)cs3)n2C)cc1C the results were H5N1 CPE inactive.
`NC(=O)NCc1cccc(Cl)c1` gave H5N1 CPE 0.0.
CC(=O)N1CN(C2CCCC2)Cc2c1sc1c2CCCC1 was read as H5N1 CPE 7.0.
CCOc1ccc2nc(SCC)[nH]c2c1 was read as H5N1 CPE 0.9.
Screening Cc1cc(C)n(-c2nc3ccccc3nc2NCCc2ccccc2)n1 returned H5N1 CPE 2.5.
Screening O=C(CSc1nc2sc3c(c2c(=O)n1-c1ccccc1)CCCC3)NCc1ccco1 returned H5N1 CPE inactive.
`CC1CCN(c2nc3ccc(C(=O)O)cc3s2)CC1` gave H5N1 CPE inactive.
`COc1ccc(C)cc1NC(=O)COC(=O)C1CC1` gave H5N1 CPE inactive.
`O=C(CCn1c(=O)oc2ccccc21)N1CCN(c2ccc(F)cc2)CC1` gave H5N1 CPE inactive.
O=C(NCCO)c1ccc(Cl)c(Cl)c1 was read as H5N1 CPE inactive.
`Cc1cc(C)nc(-n2nc(C)cc2NC(=O)CN2CCCC(C)C2)n1` (stereo unspecified) gave H5N1 CPE 0.5.
COc1cc(C(=O)O)cc(OC)c1OCc1cc(C(=O)O)oc1C was read as H5N1 CPE 0.9.
For CCCOn1c(-n2nc(C)cc2C)nc2ccccc2c1=O the results were H5N1 CPE 0.7.
For Cc1onc(-c2ccccc2Cl)c1C(=O)NCc1ccc(S(N)(=O)=O)cc1 the results were H5N1 CPE inactive.
`O=C(COC(=O)c1ccccc1NC(=O)c1ccco1)Nc1ccc2c(c1)OCO2` gave H5N1 CPE inactive.
For CC1Oc2ccccc2N(Cc2cccnc2)C1=O (stereo unspecified) the results were H5N1 CPE 1.2.
Screening Cc1ccc(C(=O)Nc2cccc(C(=O)O)c2)cc1 returned H5N1 CPE inactive.
CCc1nc(SCC(=O)N2CCN(c3ccccc3)CC2)c2oc3ccccc3c2n1 was read as H5N1 CPE 2.8.
For COC(=O)c1ccc(NC(=O)CSCC(=O)OCC(=O)c2ccc(Br)cc2)cc1 the results were H5N1 CPE 0.7.
Screening O=C(NCCN1C(=O)CSC1=O)C1CC(=O)N(c2ccccc2)C1 (stereo unspecified) returned H5N1 CPE inactive.
For Cc1cc(NC(=O)c2c([N+](=O)[O-])c(C)nn2C)no1 the results were H5N1 CPE 0.9.
For CC(CCN(C)C)OC(=O)c1ccc(C(C)c2ccccc2)o1 (stereo unspecified) the results were H5N1 CPE inactive.
Screening COc1ccc(CCNC(=O)c2[nH]c(C)c(C(C)=O)c2C)cc1OC returned H5N1 CPE inactive.
`CCN(C(=O)Cc1cccs1)c1nnc(-c2cccnc2)s1` gave H5N1 CPE inactive.
O=C(c1ccco1)N1CCN(c2nnc(-c3ccccc3)c3ccccc23)CC1 was read as H5N1 CPE inactive.
For N#Cc1nc(N2CCCCC2)nc(N2CCOCC2)n1 the results were H5N1 CPE 1.5.
Screening CCC(C)NC(=O)CSC1=Nc2ccccc2C2=NC(CC(=O)NCc3ccc(F)cc3)C(=O)N12 (stereo unspecified) returned H5N1 CPE 1.4.
COc1cccc(N=Cc2c(O)n(-c3cccc(C)n3)c(=O)c3ccccc23)c1 was read as H5N1 CPE inactive.
For CCSCc1nnc(SCC(=O)c2ccc(OC)cc2)n1C the results were H5N1 CPE 0.3.
Cc1c(NC(=O)C2C3C=CC(C3)C2C(=O)O)c(=O)n(-c2ccccc2)n1C (stereo unspecified) was read as H5N1 CPE inactive.
Screening CCC(=O)Nc1cc2nn(-c3ccccc3)nc2cc1Cl returned H5N1 CPE inactive.
`Cc1ccc(-n2c(-c3cc(C)n(C)n3)n[nH]c2=S)cc1` gave H5N1 CPE 0.1.
CC(C)C1(C)C(=O)N=C2c3ccccc3C(=O)N21 (stereo unspecified) was read as H5N1 CPE inactive.
For CCOC(=O)c1sc(NC(=O)CSc2nnc(-c3ccc(OC)cc3)n2CCOC)nc1C the results were H5N1 CPE inactive.
Screening COc1ccccc1OCc1nc(C#N)c(N2CC(C)CC(C)C2)o1 (stereo unspecified) returned H5N1 CPE 6.3.
`CC1CCc2c(sc3nc4n(c(=O)c23)CCS4)C1` (stereo unspecified) gave H5N1 CPE inactive.
For COC(=O)/C=C1\C(=O)N(c2nc3ccc(OC)cc3s2)C(=S)N1c1ccc(F)cc1 the results were H5N1 CPE inactive.
CCCCOCCCNS(=O)(=O)Cc1ccccc1 was read as H5N1 CPE inactive.
For COc1ccc(-n2c(SCC(=O)NCc3ccco3)nnc2-c2c[nH]c3ccccc23)cc1 the results were H5N1 CPE 1.1.
COc1cccc(C2=CC(c3cccs3)n3nnnc3N2)c1 (stereo unspecified) was read as H5N1 CPE inactive.
Screening Cc1ccc(SC(C)C(=O)Nc2c(C)n(C)n(-c3ccccc3)c2=O)cc1 (stereo unspecified) returned H5N1 CPE inactive.
CC1=C(C(=O)OC(C)C)C(c2cccc(F)c2)n2ncnc2N1 (stereo unspecified) was read as H5N1 CPE 2.5.
`COCCCNc1ncnc2c1[nH]c1ccccc12` gave H5N1 CPE inactive.
`O=C(CCS(=O)(=O)c1cccs1)Nc1ccc(C(=O)NCc2cccs2)cc1` gave H5N1 CPE inactive.
c1cc(N2CCCC2)ccc1C(c1nnnn1C1CCCCC1)N1CCOCC1 (stereo unspecified) was read as H5N1 CPE 0.8.
`CCS(=O)(=O)N1CCCC(C(=O)N2CCC3(CC2)OCCO3)C1` (stereo unspecified) gave H5N1 CPE 0.7.
`CCOc1ccc2nc(NC(=O)CSc3nc(SC)ns3)sc2c1` gave H5N1 CPE inactive.
Screening Cc1nn(-c2ccccc2)c(C)c1C(=O)Nc1nnc(-c2ccco2)o1 returned H5N1 CPE 1.4.

Sorted by formula weight (lowest first): part of the list above
`O=C(O)CCCn1c(=O)[nH]c2ccccc2c1=O` gave H5N1 CPE 0.4.
For Cc1cc(NC(=O)c2c([N+](=O)[O-])c(C)nn2C)no1 the results were H5N1 CPE 0.9.
For N#Cc1nc(N2CCCCC2)nc(N2CCOCC2)n1 the results were H5N1 CPE 1.5.
For Cc1noc(-c2ccccc2OC(=O)c2ccccc2)n1 the results were H5N1 CPE inactive.
CCCCOCCCNS(=O)(=O)Cc1ccccc1 was read as H5N1 CPE inactive.
Screening Cc1ccc(OCCCCn2cnc3ccccc32)c(C)c1 returned H5N1 CPE inactive.
For Cc1ccc(C2=NNC(C(O)C(O)C(O)CO)S2)cc1 (stereo unspecified) the results were H5N1 CPE 0.6.
O=C(CN1CCCC1)NCC1(c2ccccc2)CCOCC1 was read as H5N1 CPE inactive.
CC1=C(C(=O)OC(C)C)C(c2cccc(F)c2)n2ncnc2N1 (stereo unspecified) was read as H5N1 CPE 2.5.
Cc1ccc(C(C)C)c(OCCCN2C(=O)NC(C)(C)C2=O)c1 was read as H5N1 CPE inactive.
Screening COc1ccc(Cc2nc(C(=O)Nc3ccccc3)cs2)cc1 returned H5N1 CPE 0.4.
Screening COc1ccccc1OCc1nc(C#N)c(N2CC(C)CC(C)C2)o1 (stereo unspecified) returned H5N1 CPE 6.3.
`Cc1cc(C)nc(-n2nc(C)cc2NC(=O)CN2CCCC(C)C2)n1` (stereo unspecified) gave H5N1 CPE 0.5.
Screening Cc1cc(C)n(-c2nc3ccccc3nc2NCCc2ccccc2)n1 returned H5N1 CPE 2.5.
Cc1ccc(-n2ncc3c(=O)n(CC(=O)NCc4ccco4)cnc32)cc1 was read as H5N1 CPE inactive.
Screening Cn1cc([N+](=O)[O-])c(C(=O)Nc2cc(Oc3cccnc3)cc([N+](=O)[O-])c2)n1 returned H5N1 CPE inactive.
`CCOc1ccc2nc(NC(=O)CSc3nc(SC)ns3)sc2c1` gave H5N1 CPE inactive.
Screening CCN(CC)C(=O)CSc1nnc([C@H](CCSC)NC(=O)OC(C)(C)C)o1 returned H5N1 CPE 0.3.
`O=C(CCS(=O)(=O)c1cccs1)Nc1ccc(C(=O)NCc2cccs2)cc1` gave H5N1 CPE inactive.

Continuation.
`COC(=O)c1c(-c2cccs2)csc1NC(=O)CSc1ncnc2sc(C)c(C)c12` gave H5N1 CPE inactive.
`O=C(CC1NC(=O)NC1=O)Nc1ccc(Cl)cc1` (stereo unspecified) gave H5N1 CPE inactive.
For O=C1NC(=O)C(Cc2cccs2)C(=O)N1 the results were H5N1 CPE 1.2.
`O=C(Cn1cccc1)NC1CCCCCC1` gave H5N1 CPE 0.7.
Screening CCOC(=O)C(NCc1ccc2c(c1)OCO2)(NC(=O)c1ccccc1)C(F)(F)F (stereo unspecified) returned H5N1 CPE 0.8.
Screening CC1(C)CCCC2=C1CC1C(=O)N(Cc3cccnc3)C(=O)C1C2 (stereo unspecified) returned H5N1 CPE 3.4.
CC(C)N(CC(O)c1cccc([N+](=O)[O-])c1)C(C)C (stereo unspecified) was read as H5N1 CPE inactive.
O=C1CCc2cc(S(=O)(=O)N3CCCC3C(=O)N3CCN(c4ccccc4F)CC3)ccc2N1 (stereo unspecified) was read as H5N1 CPE 0.2.
For c1ccc(CNc2nc3ccccc3n3cnnc23)nc1 the results were H5N1 CPE 2.9.

Only part of the results is shown, so the mix of outcomes need not match the whole.
